Screens as filed in PubChem BioAssay.
Vaccinia inh: blocks a specific stage of Vaccinia orthopoxvirus infection; Vaccinia-infected cells, mCherry/Venus stage reporter fluorescence; active compounds read low; some inactives read as strong as hits; activity change (mCherry), % (no concentration beside the values); 89,000 compounds, 0.01% hits; AID 1053133;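 active means mCherry past -33% and 40 or more points under the early reporter, replicates agreeing; inconclusive means past -33% without that gap or agreement; tested in A549 cells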;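 further: scaled between vehicle wells and reference inhibitor wells; 23 nL library stock went into each well; one replicate is shown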
Vaccinia inh Venus: further read-out of Vaccinia inh, marked with its call; activity change (Venus), %; measured here: Venus reporter, other viral stage;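 negative = less Venus signal; first of two replicates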
Starred values were filed as active, the others as inactive; ? = inconclusive; . = not tested or not shown. Some of the compounds tested; the hit share may differ from the screen's.

SMILES | Vaccinia inh | Vaccinia inh Venus
C/C=C/c1cnc2c(c1)C(=O)N([C@@H](C)CO)C[C@H](C)[C@H](CN(C)S(=O)(=O)c1ccc(C)cc1)O2 | -2.8 | -11.0
C[C@@H]1CN([C@@H](C)CO)C(=O)c2cc(NC(=O)Nc3ccc(F)cc3)ccc2O[C@@H]1CN(C)S(=O)(=O)c1ccc(Cl)cc1 | ? | .
COc1ccc(CN(C)C[C@@H]2OCCCC[C@H](C)Oc3ccc(NS(=O)(=O)c4ccccc4)cc3C(=O)N([C@@H](C)CO)C[C@@H]2C)cc1 | -29.9 | -21.1
C[C@@H]1CN([C@@H](C)CO)C(=O)c2cc(NC(=O)CCCN(C)C)ccc2O[C@@H](C)CCCCO[C@@H]1CN(C)Cc1ccncc1 | 11.4 | 11.8
C[C@@H]1CN([C@H](C)CO)C(=O)c2cc(NC(=O)Nc3ccc(C(F)(F)F)cc3)ccc2O[C@@H]1CN(C)Cc1ccncc1 | -23.8 | -15.6
O=C(Nc1ccc(F)cc1)N1C[C@H]2[C@@H](c3ccccc31)[C@H](CO)N2C(=O)Cc1cccnc1 | 5.4 | 2.9
C[C@@H]1CN([C@H](C)CO)C(=O)Cc2cc(NS(=O)(=O)c3cccs3)ccc2O[C@H]1CN(C)CC1CCCCC1 | -26.5 | -20.2
CN1C(=O)c2cc(NC(=O)c3ccc(F)cc3)ccc2OC[C@H]2O[C@H](CC(=O)NCC3CCCCC3)CC[C@@H]21 | 1.7 | 6.9
CCCN1[C@@H]2c3ccc(-c4ccccc4F)c(=O)n3C[C@@H]2[C@@H](CO)[C@@H]1C(=O)N1CCN(C)CC1 | 10.8 | 7.7
Cc1noc(C)c1NC(=O)N(C)C[C@H]1Oc2ccc(NC(=O)Nc3ccc(C(F)(F)F)cc3)cc2C(=O)N([C@H](C)CO)C[C@H]1C | 2.4 | 12.4
CC(=O)N1[C@H](CO)[C@@H](c2ccccc2)[C@@H]1CN(C(=O)c1ccc(F)cc1)C(C)C | 7.3 | 2.5
CCNC(=O)C[C@@H]1CC[C@H](NS(=O)(=O)c2ccc(F)cc2)[C@@H](CO)O1 | 5.8 | 4.0
C[C@H](CO)N1C[C@H](C)[C@@H](CN(C)CC2CC2)OCCCC[C@H](C)Oc2ccc(NC(=O)NC3CCCCC3)cc2C1=O | 10.4 | -2.9
C[C@H](CO)N1C[C@H](C)[C@@H](CN(C)Cc2ccc3c(c2)OCO3)Oc2c(NC(=O)c3ccc(-c4nccs4)cc3)cccc2C1=O | -29.5 | -20.2
CN(C)CC(=O)Nc1ccc2c(c1)[C@@H]1C[C@@H](CC(=O)NCc3ccncc3)O[C@@H](CO)[C@@H]1O2 | -3.3 | -3.3
C[C@@H]1CN([C@H](C)CO)C(=O)c2cc(NS(=O)(=O)c3cccs3)ccc2O[C@@H](C)CCCCO[C@@H]1CN(C)C(=O)Cc1ccccc1 | ? | .
O=C(N1CCOCC1)[C@]1(Cc2ccccc2)N=C(c2ccc(OCCCO)cc2)O[C@@H]1c1ccccc1 | -27.0 | -22.2
O=C(c1ccc(F)cc1)N1C[C@H]2[C@@H](c3ccccc31)[C@@H](CO)N2C(=O)c1ccc(F)cc1 | 20.9 | 0.5
C/C=C/c1ccc([C@H]2[C@@H](CO)N(Cc3cccc(F)c3)C23CN(C(=O)CC)C3)cc1 | -11.7 | -6.1
C[C@@H]1CN([C@@H](C)CO)S(=O)(=O)c2ccc(C#CC3CC3)cc2O[C@@H]1CN(C)CC1CC1 | -15.3 | -14.8
CO[C@@H]1CN(C)C(=O)c2cc(NC(=O)c3nc4ccccc4s3)ccc2OC[C@@H](C)NC[C@H]1C | -21.8 | -14.5
C[C@@H]1CN([C@@H](C)CO)C(=O)Cc2cc(NS(=O)(=O)c3cn(C)cn3)ccc2O[C@H]1CN(C)C | 3.6 | 2.2
COc1ccc2ccccc2c1-c1c(OC)ccc2ccccc12 | 13.7 | 8.2
CCCNC(=O)C[C@H]1C[C@H]2c3cc(NC(=O)Nc4ccccc4F)ccc3O[C@H]2[C@@H](CO)O1 | 9.3 | 12.0

Profiles as entered above. Order of screens: Vaccinia inh	Vaccinia inh Venus
`C[C@@H]1CN([C@@H](C)CO)S(=O)(=O)c2ccc(C#CC3CC3)cc2O[C@@H]1CN(C)CC1CC1` is listed as -15.3	-14.8
`O=C(N1CCOCC1)[C@]1(Cc2ccccc2)N=C(c2ccc(OCCCO)cc2)O[C@@H]1c1ccccc1` is listed as -27.0	-22.2

New compounds follow:
SMILES | Vaccinia inh | Vaccinia inh Venus
C[C@@H]1CN([C@@H](C)CO)C(=O)c2cc(C#CC3CC3)cnc2O[C@@H]1CN(C)C(=O)c1ccccc1 | 11.2 | 4.6
CC(=O)N(C)C[C@@H]1Oc2ncc(C#Cc3cccnc3)cc2C(=O)N([C@@H](C)CO)C[C@H]1C | 13.7 | 2.1
C[C@H]1CN([C@@H](C)CO)S(=O)(=O)c2ccc(-c3cncnc3)cc2O[C@H]1CN(C)C(=O)C1CCC1 | -4.5 | -4.2
COc1cccc(S(=O)(=O)Nc2ccc3c(c2)[C@@H]2C[C@@H](CC(=O)N[C@@H](C)c4ccccc4)O[C@H](CO)[C@@H]2O3)c1 | -4.2 | -4.8
Cc1noc(C)c1NC(=O)N(C)C[C@@H]1Oc2ccc(NC(=O)CCCCCC(=O)Nc3ccccc3N)cc2C(=O)N([C@H](C)CO)C[C@@H]1C | 37.8 | 14.5
C[C@@H]1CN([C@@H](C)CO)C(=O)Cc2cc(NC(=O)NC3CCCCC3)ccc2O[C@@H]1CN(C)C(=O)Nc1ccc(F)cc1 | 13.2 | 10.9
C[C@@H]1CN([C@@H](C)CO)C(=O)c2cccc(NS(C)(=O)=O)c2O[C@H]1CN(C)C(=O)Nc1cccc2ccccc12 | 1.0 | 7.6
CCC(=O)Nc1ccc2c(c1)C(=O)N(C)C[C@@H](OC)[C@H](C)CN(C(=O)C1CC1)[C@@H](C)CO2 | -0.5 | -5.6
CC(=O)N(C)C[C@H]1Oc2ncc(C#Cc3ccncc3)cc2C(=O)N([C@@H](C)CO)C[C@H]1C | 7.0 | 8.6
O=C(C[C@H]1C=C[C@H](NS(=O)(=O)c2ccc(F)cc2)[C@H](CO)O1)NC1CCCCC1 | -4.1 | -0.7
O=C(C[C@H]1C=C[C@@H](NC(=O)Nc2ccccc2)[C@H](CO)O1)NCc1cccc(F)c1 | 3.5 | -1.9
CC(=O)N1[C@@H]2Cn3c(ccc(C4=CCCCC4)c3=O)[C@H]1[C@@H](C(=O)NC1CCC1)[C@@H]2CO | 3.3 | 0.4
C[C@H](CO)N1C[C@H](C)[C@H](CN(C)CC2CC2)Oc2cc(-c3ccc(F)cc3)ccc2S1(=O)=O | -23.6 | -6.7
C[C@H]1CCCCO[C@@H](CN(C)C(=O)Nc2ccc(C(F)(F)F)cc2)[C@@H](C)CN([C@@H](C)CO)C(=O)c2cc(NC(=O)Nc3ccccc3)ccc2O1 | -10.4 | -9.5
C[C@@H]1CN([C@H](C)CO)C(=O)c2cccc(NC(=O)NC3CCCCC3)c2O[C@@H]1CN(C)S(=O)(=O)c1ccccc1 | -10.1 | -7.8
CO[C@@H]1CN(C)C(=O)c2ccc(NC(=O)c3nc4ccccc4s3)cc2OC[C@@H](C)N(Cc2ccccc2)C[C@H]1C | -3.9 | -2.9
CC=Cc1ccc2n(c1=O)C[C@@H]1[C@@H](CO)[C@H](C(=O)NCC)N(CCC(F)(F)F)[C@H]21 (mixture of isomers) | 3.6 | 7.5
COCC(=O)N(C)C[C@@H]1Oc2cc(-c3cncnc3)ccc2S(=O)(=O)N([C@@H](C)CO)C[C@H]1C | 21.8 | 9.4
C[C@H]1CN([C@@H](C)CO)C(=O)c2cc(NC(=O)CCCCCC(=O)Nc3ccccc3N)ccc2O[C@@H]1CN(C)C(=O)Nc1cccc2ccccc12 | 18.4 | 16.8
CCCNC(=O)N1[C@H](CO)[C@H](c2ccc(C#Cc3cccc(F)c3)cc2)[C@@H]1C#N | -6.4 | -10.0
O=C(N[C@H]1CC[C@@H](CCn2cc(-c3cccnc3)nn2)O[C@@H]1CO)c1ccccc1F | -8.2 | -2.0
CCS(=O)(=O)Nc1ccc2c(c1)C(=O)N(C)C[C@@H](OC)[C@@H](C)CN(CC1CCCCC1)[C@H](C)CO2 | -9.4 | -9.5
COc1ccccc1C(=O)Nc1ccc2c(c1)C(=O)N(C)C[C@H](OC)[C@H](C)CN[C@@H](C)CO2 | 2.8 | 9.3
CCCC#Cc1cnc2c(c1)C(=O)N([C@@H](C)CO)C[C@@H](C)[C@H](CN(C)C(=O)C1CC1)O2 | 0.1 | 1.7
C[C@H](CO)N1C[C@H](C)[C@@H](CN(C)Cc2ccc(C(F)(F)F)cc2)Oc2c(NS(=O)(=O)c3cccs3)cccc2C1=O | -3.4 | -3.3
C[C@@H]1CN([C@H](C)CO)C(=O)c2cc(C#CCN(C)C)cnc2O[C@H]1CN(C)C(=O)c1ccc(F)cc1 | 10.1 | 5.6
O=C(C[C@@H]1CC[C@@H](NC(=O)Cc2ccccn2)[C@H](CO)O1)NCCc1ccccc1 | -3.8 | 0.1
CCCNC(=O)N[C@@H]1CC[C@H](CCn2cc(C3CCCC3)nn2)O[C@@H]1CO | -0.4 | -4.2
COc1cccc(CNC(=O)[C@@H]2[C@@H](CO)[C@@H]3Cn4c(ccc(-c5ccncc5)c4=O)[C@@H]3N2C)c1 | 9.3 | 5.2
C[C@H](CO)N1C[C@H](C)[C@@H](CN(C)S(=O)(=O)c2ccc(Cl)cc2)OCCCC[C@H](C)Oc2ccc(NC(=O)CCCN(C)C)cc2C1=O | 12.4 | 6.8
C[C@H]1CN([C@@H](C)CO)S(=O)(=O)c2ccc(/C=C/c3ccccc3)cc2O[C@H]1CN(C)C(=O)Nc1cc(F)ccc1F | ? | .
C[C@@H]1CCCCO[C@H](CN(C)Cc2ccc3c(c2)OCO3)[C@@H](C)CN([C@@H](C)CO)C(=O)c2cc(NC(=O)Nc3ccc(C(F)(F)F)cc3)ccc2O1 | ? | .
COc1ccc(NC(=O)N(C)C[C@H]2Oc3ccc(NS(=O)(=O)c4cccs4)cc3C(=O)N([C@@H](C)CO)C[C@H]2C)cc1 | 12.0 | 9.4
CCCCCCc1nc(-c2ccc(OC)nc2)c(C)c2c1[Si](C(C)C)(C(C)C)OC2 | 16.3 | 17.2
Cc1ccc(S(=O)(=O)Nc2ccc3c(c2)C(=O)N([C@@H](C)CO)C[C@@H](C)[C@@H](CN(C)S(=O)(=O)c2ccccc2)OCCCC[C@@H](C)O3)cc1 | ? | .
C[C@H](CO)N1C[C@H](C)[C@H](CN(C)Cc2ccc(-c3ccccc3)cc2)Oc2ccc(NC(=O)C3CC3)cc2CC1=O | -19.6 | -16.9

Quoted from the listing:
Vaccinia inh Venus result of CC(=O)N(C)C[C@@H]1Oc2ncc(C#Cc3cccnc3)cc2C(=O)N([C@@H](C)CO)C[C@H]1C → 2.1
Vaccinia inh result of CCCCCCc1nc(-c2ccc(OC)nc2)c(C)c2c1[Si](C(C)C)(C(C)C)OC2 → 16.3
Vaccinia inh result of COc1ccc(CN(C)C[C@@H]2OCCCC[C@H](C)Oc3ccc(NS(=O)(=O)c4ccccc4)cc3C(=O)N([C@@H](C)CO)C[C@@H]2C)cc1 → -29.9
Vaccinia inh Venus result of C[C@@H]1CN([C@H](C)CO)C(=O)c2cccc(NC(=O)NC3CCCCC3)c2O[C@@H]1CN(C)S(=O)(=O)c1ccccc1 → -7.8
Vaccinia inh result of O=C(C[C@@H]1CC[C@@H](NC(=O)Cc2ccccn2)[C@H](CO)O1)NCCc1ccccc1 → -3.8

New compounds follow
SMILES | Vaccinia inh | Vaccinia inh Venus
C[C@@H]1CN([C@@H](C)CO)S(=O)(=O)c2ccc(C#CCN(C)C)cc2O[C@@H]1CN(C)C(=O)c1ccccc1F | 3.4 | -9.9
C[C@@H]1CN([C@H](C)CO)C(=O)Cc2cc(NC(=O)CCCCCC(=O)Nc3ccccc3N)ccc2O[C@H]1CN(C)CC1CC1 | -0.1 | -2.9
C[C@H]1CN([C@@H](C)CO)C(=O)Cc2cc(NC(=O)Nc3ccc(F)cc3)ccc2O[C@@H]1CN(C)C(=O)Nc1ccc2c(c1)OCO2 | 11.2 | 6.5
Cc1noc(C)c1NC(=O)NCC[C@H]1CC[C@@H](NC(=O)c2ccccc2)[C@H](CO)O1 | 12.7 | 1.8
C[C@@H]1CN([C@@H](C)CO)C(=O)Cc2cc(NS(=O)(=O)c3ccc(F)cc3)ccc2O[C@H]1CN(C)Cc1ccccc1 | ? | .
O=C(C[C@@H]1CC[C@H](NC(=O)c2ccccn2)[C@@H](CO)O1)NCc1cccc(F)c1 | 8.2 | 2.0
O=C(C[C@@H]1C[C@@H]2c3cc(NC(=O)Nc4ccc(C(F)(F)F)cc4)ccc3O[C@@H]2[C@@H](CO)O1)NCCc1ccccc1 | 10.9 | 8.5
C[C@H]1CN([C@@H](C)CO)S(=O)(=O)c2ccc(C#CCN(C)C)cc2O[C@@H]1CN(C)C | 6.4 | 1.5
COc1ccc(S(=O)(=O)Nc2ccc3c(c2)CC(=O)N([C@H](C)CO)C[C@@H](C)[C@H](CN(C)CC2CCCCC2)O3)cc1 | -19.4 | -7.7
Cc1noc(C)c1S(=O)(=O)Nc1ccc2c(c1)C(=O)N([C@H](C)CO)C[C@@H](C)[C@@H](CN(C)Cc1ccc(C(F)(F)F)cc1)OCCCC[C@H](C)O2 | 22.7 | 6.7
C/C=C/c1ccc([C@H]2[C@@H](CO)N(C(=O)C3CC3)C23CN(S(=O)(=O)CC)C3)cc1 | -2.7 | 17.7
CC(C)NC(=O)N(C)C[C@@H]1Oc2ncc(C#Cc3ccncc3)cc2C(=O)N([C@H](C)CO)C[C@@H]1C | -11.8 | 8.3
COCC(=O)Nc1ccc2c(c1)OC[C@@H](C)N(CCC(F)(F)F)C[C@H](C)[C@H](OC)CN(C)C2=O | 1.0 | -2.1
COCc1cn(CC[C@@H]2CC[C@H](NC(=O)Nc3ccc(OC)cc3)[C@@H](CO)O2)nn1 | -5.1 | 1.0
CCC(=O)N1[C@H](CO)[C@H]2c3ccccc3N(C(=O)c3ccncc3)C[C@H]21 | -8.2 | 10.4
COc1ccc(CNC(=O)C[C@H]2CC[C@H]3[C@H](COc4ccc(NC(=O)C5CC5)cc4C(=O)N3C)O2)cc1 | -1.1 | 6.2
